Bioassay records (PubChem)
PABP polyA inh: PABP poly(A) RNA binding inhibitors, primary screen, biochemical, fluorescence polarization, uHTS; Polyadenylate-binding protein 1 (Homo sapiens), P11940; 290,000 tested, 1% active; inhibition, % at 35 µM; AID 2014, 2009;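 active = 50% or more with normal probe brightness, or confirmed in later tests; about a fifth of its hits are not listed in these tables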;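 note: calls also rest on retests at 20 µM and on dose response follow-up; controls were probe without protein and protein plus probe with vehicle; some compounds called inactive have numbers as strong as hits; many hits fall short of the cut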
Target sequence (P11940 whole entry, looked up): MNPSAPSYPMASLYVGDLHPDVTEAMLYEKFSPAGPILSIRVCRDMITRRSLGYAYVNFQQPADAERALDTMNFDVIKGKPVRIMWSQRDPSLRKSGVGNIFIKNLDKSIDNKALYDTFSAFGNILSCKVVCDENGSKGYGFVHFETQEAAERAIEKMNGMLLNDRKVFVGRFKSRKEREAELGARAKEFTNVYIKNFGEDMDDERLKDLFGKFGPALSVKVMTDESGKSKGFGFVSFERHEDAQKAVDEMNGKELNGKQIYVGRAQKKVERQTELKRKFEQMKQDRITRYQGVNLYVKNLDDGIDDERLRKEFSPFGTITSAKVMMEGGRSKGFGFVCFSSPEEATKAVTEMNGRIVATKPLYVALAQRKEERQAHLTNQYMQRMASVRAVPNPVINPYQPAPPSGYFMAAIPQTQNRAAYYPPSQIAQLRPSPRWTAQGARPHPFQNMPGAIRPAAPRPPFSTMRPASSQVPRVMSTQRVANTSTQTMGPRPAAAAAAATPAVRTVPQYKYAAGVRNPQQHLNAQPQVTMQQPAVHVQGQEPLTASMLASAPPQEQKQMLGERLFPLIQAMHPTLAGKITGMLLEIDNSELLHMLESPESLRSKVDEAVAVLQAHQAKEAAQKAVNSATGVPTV
Env fusion inh: inhibitors of HIV-1 Env-driven cell-cell fusion, primary screen, HeLa-JRFL effector, CEM21 target cells, luciferase; inhibition, % at 12.3 µM; 360,000 tested, 1.1% active; AID 651610, 2012;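 active = mean replicate inhibition score of at least 50 and every replicate individually at or above 50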;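 note: 0% = plate neutral controls and 100% = maraviroc near 300 nM; one replicate is shown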
eIF4H FP inh: human eIF4H binding inhibitors, primary screen, translation initiation inhibitor project, biochemical, uHTS, fluorescence polarization | Eukaryotic translation initiation factor 4H (Homo sapiens), Q15056 | eIF4H fluorescence polarization binding assay | inhibition, % at 35 µM | 290,000 tested, 0.94% active;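 active = 50% or more with normal probe brightness, or confirmed in later tests; about a fifth of its hits are not listed in these tables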;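 note: calls also rest on retests at 20 µM and on dose response follow-up; 0% = protein and probe with vehicle and 100% = probe without protein; strong numbers were not always called active; many hits fall short of the cut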
Yeast UUG start: modulators of yeast start codon fidelity, primary screen, whole organism, S. cerevisiae, single point, plate reader. 350,000 tested, 0.13% active. activity score, % at 18.7 µM. S. cerevisiae UUG-firefly luciferase reporter, luminescence/redox ratio;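 active = replicate mean at a twofold rise or more, about +100% in these data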;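 note: firefly luciferase made from a UUG start codon reports start codon fidelity; reporter light over untreated wells divided by growth signal over untreated wells; some hits fall short of that in this replicate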
MT1-MMP act inh: blockers of MT1-MMP proenzyme processing, primary screen, HT1080 RFP-PRO-GFP cells, GFP/RFP fluorescence; Matrix metalloproteinase-14 (Homo sapiens), P50281; GFP/RFP ratio fluorescence, overnight; percent of plate control window, DMSO zero; GFP/RFP ratio change, % at 20 µM; 360,000 tested, 0.061% active;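 active = GFP/RFP ratio change of at least 30% with cell ATP level not reduced by more than half and red fluorescence within 50% of control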; note: strong numbers were not always called active
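Assay system: HT1080 RFP-PRO-GFP cells | Dosing: 20 µM single dose, 1% DMSO | Incubation: Cells overnight before dosing, compound overnight, 37 °C, 5% CO2 | Evaluation: GFP/RFP fluorescence ratio | Control set: DMSO-only wells and HT1080 RFP-L50D-GFP cell wells as references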
Rce1 inhib: yeast Rce1p protease inhibitors, primary screen, biochemical, fluorescence, cell-free homogeneous. 290,000 tested, 0.27% active. calls only. CAAX prenyl protease 2 (Saccharomyces cerevisiae (strain ATCC 204508 / S288c)), Q03530. yeast membranes, quenched prenylated peptide cleavage fluorescence;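 active = fall in fluorescence gain of 50% or more versus controls, with final raw signal at or below 3038400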;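 note: plate controls were neutral control wells for no effect and wells lacking membranes for full effect; tested at 10 µM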
Target sequence (Q03530 whole entry, looked up): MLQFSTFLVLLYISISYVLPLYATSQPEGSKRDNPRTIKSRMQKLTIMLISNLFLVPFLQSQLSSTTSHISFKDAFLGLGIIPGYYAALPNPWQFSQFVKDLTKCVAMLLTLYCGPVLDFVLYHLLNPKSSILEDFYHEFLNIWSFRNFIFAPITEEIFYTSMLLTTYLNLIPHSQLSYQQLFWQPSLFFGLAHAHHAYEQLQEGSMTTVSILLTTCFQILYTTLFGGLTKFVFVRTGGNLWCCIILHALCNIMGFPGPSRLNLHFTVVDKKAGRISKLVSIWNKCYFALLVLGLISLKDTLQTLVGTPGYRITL
CSC inhib: cancer stem cell viability inhibitors, primary screen, luminescence; inhibition, % at 7.5 µM; 300,000 tested, 1.1% active; cancer stem cell-like cells viability;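 active = mean at 75% or more and at least half the replicates too; tested in HMLE shEcad cells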;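 note: 0% = median of negative and 100% = median of positive control wells; the first replicate is given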
eIF4H FP inh retest: further read-out of eIF4H FP inh, marked with its call; inhibition, %; compound at 20 µM; confirmation average;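 mean of two retest wells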
PABP polyA inh retest: second read-out of PABP polyA inh, no call of its own (marks repeat the call); inhibition, %; compound at 20 µM; confirmation repeats;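 mean of two retest wells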
MT1-MMP act inh RFP: recorded beside MT1-MMP act inh, whose call it bears; RFP signal change, %; measured here: RFP expression control read;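 0 = vehicle wells; hits needed this value within 50% of zero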
The depositor's hits bear a star; i = inactive; x = not tested or not shown; + = active, no number. This is a subset. The share of hits here may be higher or lower than overall.

SMILES	PABP polyA inh	Env fusion inh	eIF4H FP inh	Yeast UUG start	MT1-MMP act inh	MT1-MMP act inh RFP	Rce1 inhib	CSC inhib	others
C=COCCNC(=O)C(=O)NCC(C)C	x	x	x	-11	3	3	i	10
CCN(Cc1ccccc1)C(=O)C1CCN(Cc2ccc(OC)c(OC)c2OC)CC1	4	-10	5	-7	0	-1	i	-11
OC(COc1ccc(Cl)cc1Cl)CN1CCc2ccccc2C1 (stereo unspecified)	6	19	-9	-6	1	0	i	15
Clc1ccc(OCc2nnnn2-c2ccccc2)cc1	7	13	-5	x	3	4	i	-7
Brc1ccccc1C1=Nn2c(nnc2-c2ccccc2)SC1	-1	x	-5	-7	-17	-6	i	4
CCCCn1c(SCc2nc3ccccc3s2)nc2cc(S(N)(=O)=O)ccc21	1	-22	-7	-19	-11	-11	i	7
O=C1CSC(c2cccnc2)N1CCc1ccccn1 (stereo unspecified)	15	0	-4	x	3	6	i	-1
COc1ccc2c(c1OC)CN(C)CCc1cc3c(cc1C(=O)C2)OCO3	-1	-9	-11	x	3	2	i	-6
Cc1ccc(Cl)cc1NC(=O)C1CC(=O)N(C(C)C)C1 (stereo unspecified)	1	6	-17	-6	-1	2	i	-19
O=C(N/N=C/c1cccs1)c1cc(-c2ccc(Cl)s2)[nH]n1	-2	-13	-9	-5	2	-3	i	11
CCCC(=O)N(c1ccc(OCC)cc1)S(=O)(=O)c1ccc2c3c(cccc13)C(=O)N2C	7	-22	17	-11	2	-5	i	11
CCC/C=C/c1ccc(CN2C(C)C(=O)N(Cc3cn(CCC4OCCCO4)nn3)CCS2(=O)=O)cc1 (stereo unspecified)	x	14	x	-5	5	-4	x	x
CC(=O)Nc1nc(C)c(S(N)(=O)=O)s1	0	x	-2	-13	3	3	i	-5
CCOC(=O)N1CCN(c2cc(=O)n(C3CCCCC3)c(=O)[nH]2)CC1	-4	x	-6	-15	2	0	i	-15
CCOC(=O)C1=C(N)OC2=C(C(=O)CC(C)(C)C2)C1c1cc(CSc2nnnn2C)cs1 (stereo unspecified)	3	-2	8	x	0	-1	i	-7
CC(C)NC(=O)C1(C)CCN1CCC(=O)c1ccccc1 (stereo unspecified)	x	13	x	-10	1	3	x	x
C[C@H](NC(=O)c1nc[nH]c1C(=O)OCc1ccccc1)c1ccccc1	x	0	x	-8	5	3	x	-8
CCCCCCC(C)n1[nH]c(=O)cc1N (stereo unspecified)	1	3	-6	x	0	2	i	-4
O=C(CSc1nc2ccccc2o1)N1N=C(c2cccs2)CC1c1ccc(F)cc1 (stereo unspecified)	6	28	4	-13	1	-3	i	17
CC(=O)Nc1ccc(NC(=O)C2CCC(CNS(=O)(=O)c3cccc4nsnc34)CC2)cc1 (stereo unspecified)	-5	15	-1	x	1	3	i	-11
COc1ccccc1CNC(=O)c1ccccc1C(=O)NC(C)(C)C(=O)NCc1ccccc1OC	0	4	-17	x	-2	-1	i	-11
Cc1cc(C)n2nc(S(=O)(=O)N(CC(C)C)CC(C)C)nc2n1	-12	-13	3	-13	-3	0	i	13
CCCCN(CCCC)CC(O)COc1ccccc1Br (stereo unspecified)	11	5	-1	x	6	8	i	36
c1ccc(C2=NOC(c3nnc(-c4ccccc4)o3)C2)cc1 (stereo unspecified)	x	-11	x	-6	5	2	i	-5
CC1(C)Cc2nc3oc4c(NCc5ccccc5)ncnc4c3cc2CO1	5	8	1	-21	1	-3	i	72

Six records drawn at random from those above, as already listed:
SMILES	PABP polyA inh	Env fusion inh	eIF4H FP inh	Yeast UUG start	MT1-MMP act inh	MT1-MMP act inh RFP	Rce1 inhib	CSC inhib	others
COc1ccc2c(c1OC)CN(C)CCc1cc3c(cc1C(=O)C2)OCO3	-1	-9	-11	x	3	2	i	-6
Cc1cc(C)n2nc(S(=O)(=O)N(CC(C)C)CC(C)C)nc2n1	-12	-13	3	-13	-3	0	i	13
CC1(C)Cc2nc3oc4c(NCc5ccccc5)ncnc4c3cc2CO1	5	8	1	-21	1	-3	i	72
CCOC(=O)C1=C(N)OC2=C(C(=O)CC(C)(C)C2)C1c1cc(CSc2nnnn2C)cs1 (stereo unspecified)	3	-2	8	x	0	-1	i	-7
COc1ccccc1CNC(=O)c1ccccc1C(=O)NC(C)(C)C(=O)NCc1ccccc1OC	0	4	-17	x	-2	-1	i	-11
Brc1ccccc1C1=Nn2c(nnc2-c2ccccc2)SC1	-1	x	-5	-7	-17	-6	i	4

Next part:
SMILES	PABP polyA inh	Env fusion inh	eIF4H FP inh	Yeast UUG start	MT1-MMP act inh	MT1-MMP act inh RFP	Rce1 inhib	CSC inhib	others
CC1(C)CC(=O)C2=C(C1)NC(=O)NC2c1ccc(Cl)cc1 (stereo unspecified)	8	4	-14	-5	0	2	i	-27
Cc1c(C(=O)N2CCCCC2)oc2ccc(Br)cc12	x	-42	x	x	3	0	i	-2
CC(=O)Nc1ccc(-c2nnc(SCc3c(C)cc(C)cc3C)n2C)cc1	3	10	-7	-9	-4	0	i	-8
COc1ccc(N(Cc2ccccc2)C(=O)CSc2nnc(Cn3nnc4ccccc43)o2)cc1	5	x	-1	-13	-1	-15	i	x
CC(C)(C)NC(=O)[C@H]1CC[C@H]2[C@@H]3CC[C@H]4NC(=O)C=C[C@]4(C)[C@H]3CC[C@]12C	17	-28	-1	2	-1	3	i	4
COc1ccccc1C(=O)Nc1ccc2c(c1)CCCN2C(=O)c1cccs1	-4	5	-12	-6	2	-1	i	27
Cc1cccc(N=C2NC(=O)/C(=C\c3cccs3)S2)c1	10	-1	8	x	1	8	i	20
CC1(c2cccc(Br)c2)NC(=O)N(CC(=O)N2CCc3ccccc32)C1=O (stereo unspecified)	x	17	x	4	6	-3	x	x
O=C(NCc1ccccn1)Nc1cc(Cl)ccc1Cl	7	-4	0	-25	0	0	i	-10
O=C(Nc1cccc(NC(=O)c2ccc([N+](=O)[O-])o2)c1)c1ccco1	-3	-37	-3	-2	4	-13	i	87*
c1ccc2c(c1)Cc1ccccc1O2	x	-2	x	-8	1	-1	x	-3
COc1ccc(C(=O)C2CCCN(C/C=C/c3ccccc3OC)C2)c(OC)c1 (stereo unspecified)	0	-10	-9	x	-3	5	i	22
CC(=O)c1ccc(NC(=O)C2C3C=CC(C3=C(c3ccccc3)c3ccccc3)C2C(=O)O)cc1 (stereo unspecified)	4	1	12	x	0	3	i	56
COc1ccc(C(CC(=O)O)NC(=O)Nc2ccccc2)cc1OC (stereo unspecified)	-9	-10	0	-1	-2	-3	i	0
COC(=O)C1=C(C)NC(C)=C(C(=O)OC)C1c1ccc(-c2cccc(Cl)c2Cl)o1	-14	20	7	-15	0	-1	i	37
O=C(Cc1ccccc1)NCC(=O)OCc1ccc([N+](=O)[O-])cc1	5	16	-2	-19	-2	2	i	x
N#Cc1cn(-c2ccccc2)nc1-c1cc2ccccc2oc1=O	-11	-44	-2	-18	2	-5	i	1
NC(=O)NC(=O)COC(=O)CC12CC3CC(CC(C3)C1)C2	-2	8	-10	x	-2	1	i	-7
CCOC(=O)COc1ccc2c(=O)cc(-c3ccccc3)oc2c1	3	-170	-4	8	3	-3	i	-27
O=C(OCC(=O)N1CCCCC1)c1c[nH]c2ccccc12	x	-18	x	-16	1	1	x	-16
COc1ccc(C(=O)c2ccc([N+](=O)[O-])cc2Cl)cc1	81	1	3	x	-2	-1	i	15	eIF4H FP inh retest=-9;PABP polyA inh retest=5
CC(C)Oc1ccc(CNC(=O)Cn2ccc3cc(S(=O)(=O)N4CCCC4)ccc32)cc1	-2	12	-11	-11	2	-10	i	-1
CCOC(=O)[C@H]1[C@H]2COc3ccc(OC)cc3[C@@H]2N2C(=O)CN(Cc3ccco3)C(=O)[C@@]12C	x	-8	x	-4	-2	2	x	17
Cc1[nH]c2ccc(F)cc2c1CCN(Cc1cccnc1)C(=S)Nc1ccc(F)cc1	-6	-5	6	-6	3	-1	i	-1
COc1ccc(Br)cc1C(=O)NC(=S)Nc1ccc(CN2CCOCC2)cc1	2	1	5	-5	-4	-3	i	2
SMILES	PABP polyA inh	Env fusion inh	eIF4H FP inh	Yeast UUG start	MT1-MMP act inh	MT1-MMP act inh RFP	Rce1 inhib	CSC inhib	others
COCCNC(=O)C(c1cccnc1)N(Cc1ccccc1)C(=O)Cn1nnc2ccccc21 (stereo unspecified)	11	-2	2	x	-2	2	i	3
N#Cc1cnc(=S)n(-c2cc(C(F)(F)F)cc(C(F)(F)F)c2)c1N	x	17	x	-13	-5	-5	x	x
CC1CCC(NC(=O)CN2CCC(n3nnc4cc(F)ccc43)CC2)CC1 (stereo unspecified)	3	-3	0	-18	4	-9	i	-4
CCNC(=O)C1CCCN(Cc2ccc(C(=O)OCC)cc2)CC1 (stereo unspecified)	x	-32	x	-10	2	4	x	x
O=C(CSc1ccc2nc(-c3ccccc3)cn2n1)NCC1CCCO1 (stereo unspecified)	4	-5	-2	-14	3	-2	i	-12
O=C(Nc1ccc(OCc2ccccc2Cl)cc1)c1cccnc1	-7	43	-4	-21	6	-3	i	61
CC1(OC(=O)c2ccco2)C(=O)C=C2C=C(C3CC3)OC=C2C1=O (stereo unspecified)	x	-2	x	-7	-2	24	i	-6
NC(=O)NCc1ccc(F)cc1	-1	6	8	x	-2	4	i	-15
O=c1c2[nH]c3ccccc3c2nc2n1CCS2	8	-15	2	x	2	0	i	-4
CCC(=O)N1CCC2(CC1)Oc1ccc(Cl)cc1C(=O)C21CC(c2ccccc2)=NO1 (stereo unspecified)	-1	-185	3	-14	3	0	i	2
COc1ccccc1C1=NNC(=Nc2cccc(S(=O)(=O)N(C)C)c2)SC1	24	41	-1	7	-16	-18	i	-4
Cc1cc(C)c2nc(NC(=O)c3ccc4c(=O)n5c(nc4c3)CCCCC5)sc2c1	-4	33	-4	x	-2	-13	x	9
c1ccc(CN2CN=C(Nc3nc4ccccc4s3)NC2)cc1	-8	13	-4	-12	6	-5	i	10
CCOC(=O)c1ccc(S(=O)(=O)NC2CCCCCCC2)n1C	2	x	-1	-2	0	-6	i	-6
Cc1noc(C)c1CSc1nnc(C)c(=O)[nH]1	2	-63	-6	-21	2	4	i	-1
Cc1ccc(C(=O)c2c3ccc(C(F)(F)F)cc3nn2CCC(N)=O)cc1	x	x	x	-16	-1	-3	+	-12
Cc1cc(C)c(S(=O)(=O)N2CCCOC2CNC(=O)C(=O)NCc2ccco2)c(C)c1 (stereo unspecified)	-2	-7	6	x	4	2	i	-14
COc1ccc(NC(=O)Nc2nnc(-c3ccco3)s2)cc1	-8	-28	11	-14	0	-2	i	-7
CC(=O)OCC(=O)C1=CCC2C3CCC4=CC(=O)C=CC4(C)C3(F)C(OC(C)=O)CC12C (stereo unspecified)	-1	-15	-4	1	-9	-13	i	-9
COc1cccc(NC(=O)COC(=O)C2CCN(S(=O)(=O)c3cccs3)CC2)c1	0	-11	4	3	0	5	i	-3
Cc1cccn2c(CN[C@H]3CCCCNC3=O)c(C(=O)N3CCOCC3)nc12	-10	-20	-4	0	-5	-2	i	4
CCCNC(=O)C1(C)CCCN(Cc2ccccc2N(C)C)C1 (stereo unspecified)	x	2	x	-26	-4	1	x	x
CCOC(=O)N1CCN(C(=O)C2CCC(=O)N2C(C)C)CC1 (stereo unspecified)	1	-35	4	-13	-7	-2	i	-3
C/C(=N\NC(=O)C1CCCC1)c1ccc(Cl)c(Cl)c1	3	-27	0	-11	6	5	i	10
